# Cruzain noTriton: blocks cruzain activity in detergent-free assay | P25779 | purified cruzain, Z-FR-AMC fluorescence, no detergent | Potency, µM, without a hit: max response, negative = inhibition, usual class: inhibitors | 200,000 tested, 2.3% active; active = well fitted curve in the direction sought with a large enough effect; inconclusive = small, poorly fitted or top-dose-only effect, or another doubt; inactive = no such curve, though single readings can be large; an effect the other way counts as inactive or inconclusive;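 also: plate controls were enzyme without inhibitor for no effect and buffer without enzyme for full effect; nearly all actives have a fitted effect of over 40% in size; top concentration of the series not given in the record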
# Target sequence (P25779 123-467 limits assumed): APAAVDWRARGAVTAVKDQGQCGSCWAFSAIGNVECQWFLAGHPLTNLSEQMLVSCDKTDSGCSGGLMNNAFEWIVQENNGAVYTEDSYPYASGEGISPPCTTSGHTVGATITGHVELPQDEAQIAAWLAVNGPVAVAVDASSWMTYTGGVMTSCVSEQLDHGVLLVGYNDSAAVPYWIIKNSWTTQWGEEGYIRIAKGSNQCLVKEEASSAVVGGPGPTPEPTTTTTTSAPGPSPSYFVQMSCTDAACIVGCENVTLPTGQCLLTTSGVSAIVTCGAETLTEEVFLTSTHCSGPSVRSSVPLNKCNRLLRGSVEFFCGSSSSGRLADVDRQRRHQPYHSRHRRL
#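 Purified cruzain at 1.5 nM, pre-incubated 15 min with compound at room temperature in 100 mM sodium acetate pH 5.5, 5 mM DTT, 0.00005% Triton X-100. Reaction started with 2 uM Z-FR-AMC; AMC fluorescence increase over 60 s gives rate.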
# LASV entry inh: blocks Lassa virus binding to or entry into cells; 300,000 tested, 1.2% active; Potency, µM (top dose mostly 37.9 µM), inactives show top-dose activity change, negative = inhibition, most hits filed as inhibitors; Lassa virus pseudotype entry inhibition, cell reporter; control for the full effect not named in the record; active means well fitted inhibition curve with a large enough effect; inconclusive means small, poorly fitted or top-dose-only effect, or effect the other way; inactive means flat fitted curve, though single readings scatter; tested in HEK293 cells; also: % is scaled to controls: 0 for no effect and ±100 for the full control effect; nearly all actives have a fitted effect of over 50% in size; luciferase read-out
# SARS PLP yeast: inhibitors of SARS-CoV papain-like protease in yeast | S. cerevisiae expressing SARS-CoV PLpro, growth rescue; control for the full effect not named in the record | Potency, µM (doses to about 32.9 µM), inactives show at the top dose activity, positive = growth rescue | 330,000 tested, 0.19% active; also: 0% is about no effect; nearly all actives have a fitted effect of over 55% in size; growth read by luminescence after 48 h
# NS1 inh: blocks influenza NS1 protein function. S. cerevisiae slowed by influenza A NS1, growth recovery by OD600. Potency, µM (doses to about 46.1 µM), without a hit: at the top dose activity, positive = more growth. 270,000 tested, 0.4% active; also: actives are rising curves; nearly all actives have a fitted effect of over 50% in size
#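 S. cerevisiae expressing influenza A NS1, grown in glucose, washed, then diluted 1:100 into pH 6.0 -URA galactose medium with 23 nl compound. Growth recovery read as OD600; NS1-free strain serves as control.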
# StopGo reporter: FMDV 2A StopGo reporter, luciferase signal | human cells with a luciferase reporter of 2A StopGo recoding; control for the full effect not named in the record | Potency, µM (top dose mostly 57.9 µM), without a hit: at the top dose signal change, negative = less light | 410,000 tested, 1.2% active; active = well fitted falling curve with a large enough effect; inconclusive = small, poorly fitted or top-dose-only effect; inactive = no such curve, though single readings can be large or run the other way; tested in HEK293T cells; also: % is scaled to controls: 0 for no effect and ±100 for the full control effect; nearly all actives have a fitted effect of over 45% in size; luciferase light after 4 h
# RE007 growth inh: less growth of the S. pombe RE007 Vpr strain. S. pombe RE007 Vpr strain, BacTiter-Glo ATP luminescence, 24 h; control for the full effect not named in the record. Potency, µM (highest dose often 92.2 µM), for inactives: at the highest dose activity change, negative = less growth. 360,000 tested, 0.21% active; active = well fitted falling curve with a large enough effect; inconclusive = small, poorly fitted or top-dose-only effect; inactive = no such curve, though single readings can be large or run the other way;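 also: % is scaled to controls: 0 for no effect and ±100 for the full control effect; nearly all actives have a fitted effect of over 50% in size; the assay follows cell death caused by Vpr and the record does not say whether a fall means rescue or toxicity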
#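 Fission yeast strain RE007, carrying one chromosomally integrated HIV-1 vpr copy, was seeded at OD 0.01 in PMG+AL medium with 23 nL pinned compound. After 24 h at 30 °C and 99% humidity, viability was read by BacTiter-Glo luminescence.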
# Cruzain inh Det: cruzain (T. cruzi) inhibition with detergent; P25779; 200,000 tested, 0.43% active; purified cruzain, Z-FR-AMC fluorescence, 0.01% Triton; Potency, µM, for inactives: max response, negative = inhibition, actives largely listed as inhibitors; active = well fitted curve in the direction sought with a large enough effect; inconclusive = small, poorly fitted or top-dose-only effect, or another doubt; inactive = no such curve, though single readings can be large; an effect the other way counts as inactive or inconclusive;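 also: plate controls were neutral wells for no effect and buffer without enzyme for full effect; nearly all actives have a fitted effect of over 40% in size; top concentration of the series not given in the record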
#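 Read-out: AMC fluorescence (360 nm excitation, 450 nm emission), four reads over 2 min, first-to-third difference used. Conditions: cruzain 1.5 nM, Z-FR-AMC 2 uM, pH 5.5 acetate, 5 mM DTT, 0.01% Triton X-100.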
# MARV entry inh: Marburg virus entry inhibition | AID 540276 | 300,000 tested, 1.8% active | Marburg virus pseudotyped entry inhibition, cell reporter; control for the full effect not named in the record; about a third of the inactives were read at about 46 µM | Potency, µM (titrated, usually from 37.8 µM), without a hit: at the highest dose activity change, negative = inhibition, usual class: inhibitors; active = well fitted inhibition curve with a large enough effect; inconclusive = small, poorly fitted or top-dose-only effect, or effect the other way; inactive = flat fitted curve, though single readings scatter; tested in HEK293 cells; about a fifth of its hits are not listed in these tables; also: % is scaled to controls: 0 for no effect and ±100 for the full control effect; luciferase read-out
# Numbers without * were called inactive; ? = inconclusive; . = not tested or not shown; [ ] = dose if it differs, or a comment. Unless noted, calls follow the shape of the dose curve; as a rule, active means well fitted rising curve with a large enough effect; inconclusive means small, poorly fitted or top-dose-only effect; inactive means no such curve, though single readings can be large or run the other way. Potency is read from the fitted curve at half-maximal effect.
SMILES,Cruzain noTriton,LASV entry inh,SARS PLP yeast,NS1 inh,StopGo reporter,RE007 growth inh,Cruzain inh Det,MARV entry inh
Cn1c(=O)n(CC(=O)Nc2cccnc2)c2ccccc21,.,7%,.,8%,4%,2%,.,5%
Cc1nc(N2CCOCC2)c2c(C(=O)N3CCN(c4ccc(Cl)cc4)CC3)c(C)oc2n1,?,13%[46.1 µM],.,.,-22%,.,2.6%,.
O=C(CCc1nc2ccccc2[nH]c1=O)N/N=C/c1ccccc1,.,1%,0%,10%,46%[activator],10%,.,?
COCc1cc(=O)n2[nH]c(-c3cccs3)cc2n1,.,12%,0%,1%,8%,7%,.,23%
O=C(O)c1ccc(N/N=C/C(Br)=C/c2ccccc2)cc1,.,.,-3%,-86%,?,-1%,.,.
CC(=O)NC1(C(F)(F)F)NC(=O)N(C2CCCCC2)C1=O (configuration not stated),-11%,2%,4%,15%,-9%,20%[3.69 µM],4.9%,-28%
Cc1ccc(S(=O)(=O)N(C)C)cc1NC(=O)C(C)OC(=O)C1CCCCC1 (configuration not stated),.,-27%,4%,.,-7%,3%,.,?
CC(NC(=O)CN1C(=O)c2ccccc2C1=O)c1ccccc1 (configuration not stated),.,.,1%,2%,1%,4%,.,.
CC(=O)Nc1ccc(C(=O)CN2CCN(c3ccccc3)CC2)cc1,.,-4%[46.1 µM],2%,-4%,0%,-6%,.,?
CCOC(=O)C1=C(COC(=O)c2cc(OC)c(OC)cc2[N+](=O)[O-])NC(=O)NC1C (configuration not stated),.,-2%,-2%,.,-17%,-1%,.,20%
COc1cccc(CNC2CCCC2)c1,-4%,18%,0%,4%,-9%,-5%,2.7%,-3%
O=C(Cn1ccc([N+](=O)[O-])n1)N1CCCCC1,.,.,0%,9%,-12%,31%,.,.
Cc1cc2nc(CCN(C(=S)NCC(C)C)C3CCCC3)[nH]c2cc1C,12%,?,-3%,1%,.,0%,-3.7%,?
Cc1ccccc1C1=NCC(=S)Nc2ccc(Cl)cc21,-24%,-3%,5%,6%,?,-16%,-3.4%,-9%[46.1 µM]
CCCn1c(=S)[nH]c2cc(C(=O)N3CCN(C(=O)OCC)CC3)ccc2c1=O,.,-1%[46.1 µM],3%,-10%,-18%,11%,.,-25%[46.1 µM]
CCC1CCCCN1C(=O)c1ccc(OC)c(OC2CCN(C(C)=O)CC2)c1 (configuration not stated),.,-12%,1%,10%,-11%,-5%,.,11%
Cn1c(/C(C#N)=C/c2ccc(-c3ccc(S(N)(=O)=O)cc3)o2)nc2ccccc21,?,?,-9%,19%,-3%,5%,-7.3%,?
CC(=O)N1c2ccc(S(=O)(=O)NCc3ccc(Cl)cc3)cc2CC1C (configuration not stated),5%,9%[46.1 µM],.,.,-7%,.,-4.0%,.
CCn1cc(C(=O)O)c(=O)c2cc(F)c(N3CCN(S(=O)(=O)c4ccc(NC(=O)OC)cc4)CC3)cc21,15%,-4%,?,?,-22%,.,-21%,?
O=C(COc1ccc(Cl)cc1)Nc1ccc2c(c1)CCC2,-1%,28%,-23%,-5%,-12%,-15%,-3.1%,-12%
O=C(CN1C(=O)c2ccc([N+](=O)[O-])cc2C1=O)NC1CCCCCC1,.,1%,6%,.,-19%,10%,.,15%
CCc1cc2c(cc3c(=O)n(CC(=O)N4CCN(C)CC4)ncn32)s1,.,.,-1%,10%,-16%,4%,.,.
CCOc1ccc(N(CC)S(=O)(=O)N2CCCC(C(=O)Nc3ccc(OC)c(Cl)c3)C2)cc1 (configuration not stated),-12%,?,.,.,-29%,.,-5.0%,.
Cc1ccc(NC(=O)CSCC(N)=O)cc1C,7%,?,3%,2%,0%,-1%,5.7%,1%
N#Cc1ccc(Oc2ccc(C#N)c(C#N)c2)cc1C#N,.,-8%[46.1 µM],.,.,-6%,2%,.,5%[46.1 µM]
Cc1ccc(NC(=S)NC(=O)C2CC2)c(C)c1,.,12%[46.1 µM],1%,1%,19%,-23%,.,?
CCCc1cc(=O)oc2cc(C)cc(O)c12,1%,0%,-21%,-101%,?,-12%,-3.8%,-8%
O=C(CNC(=O)c1ccc(Br)o1)NNC(=O)c1ccccc1F,.,10%,-4%,0%,-2%,-6%,.,?
Cc1cc(/C=N/NC(=O)Cn2c3ccccc3c(=O)c3ccccc32)c(C)n1-c1ccc(Cl)cc1,3.2µM*,-17%,-3%,17%,-19%,-4%,-4.1%,?
O=C(COC(=O)CCC(=O)c1ccc(Cl)cc1)NC1CC1,.,7%[46.1 µM],-2%,.,-12%,-19%,.,6%[46.1 µM]

# Not a retest: an excerpt of the list.
SMILES,Cruzain noTriton,LASV entry inh,SARS PLP yeast,NS1 inh,StopGo reporter,RE007 growth inh,Cruzain inh Det,MARV entry inh
Cn1c(/C(C#N)=C/c2ccc(-c3ccc(S(N)(=O)=O)cc3)o2)nc2ccccc21,?,?,-9%,19%,-3%,5%,-7.3%,?
CC(=O)N1c2ccc(S(=O)(=O)NCc3ccc(Cl)cc3)cc2CC1C (configuration not stated),5%,9%[46.1 µM],.,.,-7%,.,-4.0%,.
CCn1cc(C(=O)O)c(=O)c2cc(F)c(N3CCN(S(=O)(=O)c4ccc(NC(=O)OC)cc4)CC3)cc21,15%,-4%,?,?,-22%,.,-21%,?
O=C(COc1ccc(Cl)cc1)Nc1ccc2c(c1)CCC2,-1%,28%,-23%,-5%,-12%,-15%,-3.1%,-12%
O=C(CN1C(=O)c2ccc([N+](=O)[O-])cc2C1=O)NC1CCCCCC1,.,1%,6%,.,-19%,10%,.,15%
CCc1cc2c(cc3c(=O)n(CC(=O)N4CCN(C)CC4)ncn32)s1,.,.,-1%,10%,-16%,4%,.,.
CCOc1ccc(N(CC)S(=O)(=O)N2CCCC(C(=O)Nc3ccc(OC)c(Cl)c3)C2)cc1 (configuration not stated),-12%,?,.,.,-29%,.,-5.0%,.
Cc1ccc(NC(=O)CSCC(N)=O)cc1C,7%,?,3%,2%,0%,-1%,5.7%,1%
N#Cc1ccc(Oc2ccc(C#N)c(C#N)c2)cc1C#N,.,-8%[46.1 µM],.,.,-6%,2%,.,5%[46.1 µM]
Cc1ccc(NC(=S)NC(=O)C2CC2)c(C)c1,.,12%[46.1 µM],1%,1%,19%,-23%,.,?
CCCc1cc(=O)oc2cc(C)cc(O)c12,1%,0%,-21%,-101%,?,-12%,-3.8%,-8%
O=C(CNC(=O)c1ccc(Br)o1)NNC(=O)c1ccccc1F,.,10%,-4%,0%,-2%,-6%,.,?
Cc1cc(/C=N/NC(=O)Cn2c3ccccc3c(=O)c3ccccc32)c(C)n1-c1ccc(Cl)cc1,3.2µM*,-17%,-3%,17%,-19%,-4%,-4.1%,?

# Next structures:
SMILES,Cruzain noTriton,LASV entry inh,SARS PLP yeast,NS1 inh,StopGo reporter,RE007 growth inh,Cruzain inh Det,MARV entry inh
CN(CCO)c1cc(N2CCCCC2)c2nonc2c1[N+](=O)[O-],.,-8%[46.1 µM],1%,.,19%,14%,.,-13%[46.1 µM]
O=[N+]([O-])c1cc([N+](=O)[O-])c2cccnc2c1Oc1ccccc1O,-8%,?,20%,26%,16µM*,-10%,-5.1%,?
COc1cccc2cc(CC(=O)c3cc(C)ccc3C)c(=O)oc12,.,.,0%,-8%,15%,8%,.,.
CSc1sccc1/C=C(/C#N)C(=O)c1ccco1,.,2%[46.1 µM],-4%,5%,2%,-6%,.,?
Cc1cc(C)n(CC(O)COc2ccccc2)n1 (configuration not stated),4%,-3%,3%,14%,-5%,11%,3.5%,-1%
C=CCn1c(C)cc(C(=O)COc2ccc(C)nc2[N+](=O)[O-])c1C,-10%,?,-5%,-4%,?,8%,-3.3%,?
Cc1cc(N/N=C/c2ccncc2)nc2ccccc12,.,?,-2%,0%,20%,-17%,.,?
O=C(CSc1nccn1Cc1ccco1)Nc1ccccc1F,.,?,10%,4%,24%,-10%,.,-1%
Cc1ccc(Cn2c(N3CCNCC3)nc3c2c(=O)[nH]c(=O)n3C)cc1,.,.,8%,11%,-6%,-3%,.,.
Cc1ccc(S(=O)(=O)/N=C2/NC(=O)/C(=C/c3ccc(Br)o3)S2)cc1,6%,-1%,-42%,-16%,1%,4%,-27%,18%
Cc1ccc(C(=O)Nc2c(C#N)c(C)c(C)n2Cc2ccccc2)cc1,4%,-49%,6%,-4%,?,-10%,-4.7%,?
Cc1ccc(COc2ccc3oc(-c4ccccc4)c(C(=O)O)c3c2)cc1,20µM*,-1%[46.1 µM],.,.,2%,.,?,.
COC(=O)c1cc(S(=O)(=O)Nc2cc(S(=O)(=O)N(C)C)ccc2C)oc1C,.,-6%[46.1 µM],2%,2%,50%[activator],-2%,.,1%[46.1 µM]
CCOC(=O)c1c(NC(=S)Nc2ccc(OCC)cc2)sc2c1CCN(C)C2,.,16%,-1%,-8%,21%,-16%,.,?
Cc1ccc(-n2c(SCC(=O)NCCC3=CCCCC3)nc3n[nH]c(C)c3c2=N)cc1Cl,.,.,3%,-1%,-7%,8%,.,.
O=C(NC1CCCCC1)N1CCC(c2nc3ccccc3[nH]2)CC1,0%,-7%,13%,-1%,-3%,13%,0.2%,4%
CCC(C(=O)Nc1ccc(C(=O)OC)cc1)n1c(=O)c(-c2ccccc2NC(C)=O)nc2ccccc21 (configuration not stated),1%,0%[46.1 µM],.,.,-12%,.,-2.6%,-2%[46.1 µM]
CC1(C)Cc2c(sc3ncnc(NNC(=S)NCc4ccccc4)c23)CO1,4%,0.12µM*,1%,11µM*,-4%,2%,-5.5%,?
Cc1nc(SCc2cccc(C(=O)O)c2)nc2c1CCCC2,.,-21%,-1%,-1%,?,-26%,.,-25%[46.1 µM]
C=CCNC(=S)NNC(=O)c1cccc2ccccc12,-6%,0%,8%,3%,37%[activator],20%,2.7%,2%
O=C(O)CCCC(=O)NNc1ncnc2ccccc12,-11%,19%,-2%,-2%,6%,-8%,-5.0%,?

# From PubChem
